Assay outcomes as filed in PubChem.
AF4-AF9 inh: MLL-AF4/AF9 protein interaction inhibition; P42568; AlphaScreen, biotin-AF4 peptide binding to FLAG-AF9; inhibition, % at 10 µM; actives 0.47% (n = 350,000); AID 651704;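 active = every replicate reaching a set inhibition limit, whatever the replicate mean, cut at about 25% in these data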;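 also: 0% = plate neutral control median and 100% = total signal loss; the record names both 10 and 1 µM as test concentration; the first replicate is given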
Target sequence (P42568 whole entry, looked up): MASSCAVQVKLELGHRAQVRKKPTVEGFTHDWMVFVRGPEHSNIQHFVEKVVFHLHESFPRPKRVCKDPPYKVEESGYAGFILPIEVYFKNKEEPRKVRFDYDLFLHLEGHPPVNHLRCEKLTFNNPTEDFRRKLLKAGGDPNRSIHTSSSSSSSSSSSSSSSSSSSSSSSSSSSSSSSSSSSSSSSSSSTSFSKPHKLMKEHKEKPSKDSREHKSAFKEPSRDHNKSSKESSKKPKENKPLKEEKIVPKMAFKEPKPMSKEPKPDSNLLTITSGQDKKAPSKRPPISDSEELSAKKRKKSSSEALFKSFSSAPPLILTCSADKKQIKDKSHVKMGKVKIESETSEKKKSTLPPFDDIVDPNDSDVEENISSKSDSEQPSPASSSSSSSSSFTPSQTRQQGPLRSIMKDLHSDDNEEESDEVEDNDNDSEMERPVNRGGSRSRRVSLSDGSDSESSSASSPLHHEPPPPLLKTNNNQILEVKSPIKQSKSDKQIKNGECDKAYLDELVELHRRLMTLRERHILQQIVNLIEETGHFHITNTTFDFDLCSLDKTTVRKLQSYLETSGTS
Ecoli rRNA inh: inhibits bacterial ribosomal RNA function over humanized ribosomes | E. coli WT GFP vs humanized-ribosome RFP mutants, fluorescence, 24 h; stronger effect = lower value; DMSO median 0, no signal -100 | GFP signal change (wild-type ribosome), % (concentration not given with the values) | actives 1.6% (n = 350,000);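 active = significant combined selectivity score with lowered wild-type GFP, culture density cut under 30%, mutant RFP and density less affected; inactive = any of these conditions unmet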; also: one replicate is shown; some compounds called inactive have numbers as strong as hits
Ecoli rRNA inh OD600: also measured in Ecoli rRNA inh; calls as there; OD600 change, %; measured here: OD600 growth;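 optical density of the mix in the first replicate; 0 = DMSO median and -100 = no signal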
Ecoli rRNA inh RFP: recorded beside Ecoli rRNA inh, whose call it bears; RFP signal change, %; measured here: RFP humanized mutant strains;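 first replicate; 0 = DMSO median and -100 = no signal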
Starred values were filed as active, the others as inactive; & = joins results of further samples. This is a subset; rates above refer to the full screens.

The line under a structure holds: AF4-AF9 inh	Ecoli rRNA inh	Ecoli rRNA inh OD600	Ecoli rRNA inh RFP
CC(=O)N1[C@H](CO)[C@@H]2c3ccccc3N(C(=O)Nc3cc(F)ccc3F)C[C@@H]21
    1.2	2	1	-1.4
O=C(NCC[C@H]1CC[C@H](NS(=O)(=O)c2ccc(F)cc2)[C@@H](CO)O1)Nc1ccc(Cl)cc1
    13	-11&-49	-8&-73	1.3&16
COCC(=O)Nc1ccc2c(c1)OC[C@@H](C)N(C(=O)NC(C)C)C[C@@H](C)[C@@H](OC)CN(C)C2=O
    2.7	5	-6	-4.1
CCCNC(=O)Nc1ccc2c(c1)C(=O)N(C)C[C@@H](OC)[C@@H](C)CN(Cc1cccnc1)[C@H](C)CO2
    -1.3	-2	-4	-2.0
Cc1ccc(S(=O)(=O)Nc2ccc3c(c2)C(=O)N([C@@H](C)CO)C[C@H](C)[C@@H](CN(C)S(=O)(=O)c2ccccc2)OCCCC[C@H](C)O3)cc1
    1.1	0	-5	-0.6
C[C@@H]1CCCCO[C@@H](CN(C)C(=O)Nc2ccc(F)cc2)[C@@H](C)CN([C@H](C)CO)C(=O)c2cc(NC(=O)Nc3cccc4ccccc34)ccc2O1
    -1.9	4	4	-2.7
C[C@@H]1CCCCO[C@H](CN(C)S(=O)(=O)c2ccc(F)cc2)[C@@H](C)CN([C@H](C)CO)C(=O)c2cc(NC(=O)c3ccncc3)ccc2O1
    -1.7	2	9	-1.4
CCC(=O)N(C)C[C@H]1Oc2cc(C3=CCCC3)ccc2S(=O)(=O)N([C@@H](C)CO)C[C@H]1C
    -9.0	-4	-1	-0.7
Cc1cn(CC(=O)NCCCc2ccccc2)c(=O)[nH]c1=O
    -3.3	10	18	1.7
CCCCNC(=O)C1(C)CCN1C(=O)Cc1cccc2ccccc12 (configuration not stated)
    -3.4	-6	1	-2.2
CC(C)NC(=O)Nc1ccc2c(c1)C(=O)N([C@H](C)CO)C[C@H](C)[C@@H](CN(C)S(=O)(=O)c1cccs1)OCCCC[C@@H](C)O2
    -2.3	-2	-2	-1.5
CC(C)NC(=O)N(C)C[C@H]1Oc2ccc(NC(=O)CCCCCC(=O)Nc3ccccc3N)cc2C(=O)N([C@@H](C)CO)C[C@H]1C
    -1.3	4	1	1.2
CCCC#Cc1ccc2c(c1)O[C@@H](CN(C)C(=O)NC(C)C)[C@H](C)CN([C@H](C)CO)S2(=O)=O
    1.6	-3	-15	0.9
Cc1ccccc1-c1cnc2c(c1)C(=O)N([C@@H](C)CO)C[C@@H](C)[C@H](CN(C)Cc1cccnc1)O2
    -3.2	3	10	0.5
C[C@@H]1CN([C@@H](C)CO)C(=O)c2cccc(NC(=O)c3cnccn3)c2O[C@H]1CN(C)S(=O)(=O)c1cccs1
    -0.7	5	7	-1.1
C[C@H]1CN([C@@H](C)CO)C(=O)c2cccc(NC(=O)C3CC3)c2O[C@@H]1CN(C)C(=O)Nc1ccc(F)cc1
    -3.4	-3	7	-1.3
Cc1cc(C(=O)Nc2cccc3c2O[C@@H](CN(C)Cc2ccc(-c4ccccc4)cc2)[C@@H](C)CN([C@@H](C)CO)C3=O)n(C)n1
    -4.7	-9	-6	-0.9
O=C(C[C@H]1CC[C@@H]2[C@H](COC[C@H](O)CN2S(=O)(=O)c2ccc(F)cc2)O1)NCc1ccc(Cl)c(Cl)c1
    6.8	-24	-62	5.4
CN(C)C(=O)[C@@H]1[C@@H](CO)[C@@H]2Cn3c(ccc(C4=CCCCC4)c3=O)[C@H]1N2C
    1.0	4	1	-3.7
C[C@H](CO)N1C[C@H](C)[C@@H](CN(C)C(=O)Nc2cccc(F)c2)OCc2cnnn2CCCC1=O
    0.3	-2	2	1.3
CO[C@H]1CN(C)C(=O)c2cc(NC(=O)C3CC3)ccc2OC[C@@H](C)N(C(=O)c2ccccc2F)C[C@H]1C
    0.3	1	-2	0.5
C[C@H]1CN([C@@H](C)CO)C(=O)c2cc(NS(=O)(=O)c3ccc(Cl)cc3)ccc2O[C@@H]1CN(C)C(=O)Nc1ccc2c(c1)OCO2
    -0.1	-3	0	-3.5
O=C(N[C@H]1CC[C@@H](CCNC(=O)C2CCC2)O[C@@H]1CO)c1ccncc1
    -2.4	0	0	-1.0
O=C(C(=O)N1CCC(CNS(=O)(=O)c2ccc(F)cc2)CC1)c1cc2ccccc2o1
    0.7	-9	-16	2.6
C[C@@H]1CN([C@@H](C)CO)C(=O)c2ccccc2-c2ccccc2CO[C@@H]1CN(C)C(=O)Nc1cccc(Cl)c1Cl
    0.0	-1	1	0.4
C[C@H](CO)N1C[C@H](C)[C@@H](CN(C)CC2CC2)Oc2ccc(NC(=O)C3CC3)cc2CC1=O
    -3.5	2	0	-1.7
C[C@H](O)C#Cc1ccc2c(c1)O[C@@H](CN(C)C(=O)CN(C)C)[C@@H](C)CN([C@@H](C)CO)S2(=O)=O
    -3.0	-5	-1	-4.9
CNC[C@H]1Oc2ccc(NC(=O)CCCN(C)C)cc2C(=O)N([C@@H](C)CO)C[C@H]1C
    -19	8	9	0.5
CS(=O)(=O)c1ccc(C(=O)OCC(=O)N2CCN(CCC3CCCCC3)CC2)cc1[N+](=O)[O-]
    7.2	-14	-4	-3.7
COC(=O)C[C@H]1CC[C@@H]2[C@@H](COc3ccc(NC(=O)c4ccccc4)cc3C(=O)N2C)O1
    -1.5	-2	-3	-1.2

Some of these compounds in order of number of heavy atoms, ascending.
The line under a structure holds: AF4-AF9 inh	Ecoli rRNA inh	Ecoli rRNA inh OD600	Ecoli rRNA inh RFP
CNC[C@H]1Oc2ccc(NC(=O)CCCN(C)C)cc2C(=O)N([C@@H](C)CO)C[C@H]1C
    -19	8	9	0.5
Cc1ccccc1-c1cnc2c(c1)C(=O)N([C@@H](C)CO)C[C@@H](C)[C@H](CN(C)Cc1cccnc1)O2
    -3.2	3	10	0.5
C[C@@H]1CN([C@@H](C)CO)C(=O)c2cccc(NC(=O)c3cnccn3)c2O[C@H]1CN(C)S(=O)(=O)c1cccs1
    -0.7	5	7	-1.1

(cont.)
The line under a structure holds: AF4-AF9 inh	Ecoli rRNA inh	Ecoli rRNA inh OD600	Ecoli rRNA inh RFP
O=C(c1ccccc1)N1CC2(C1)[C@@H](c1ccccc1)[C@@H](CO)N2Cc1ccccn1
    0.3	-3	2	-0.9
CCNC(=O)[C@H]1[C@H](CO)[C@H]2Cn3c(ccc(-c4ccccc4F)c3=O)[C@H]2N1C
    -3.0	0	9	0.0
C[C@H]1CCCCO[C@@H](CN(C)C(=O)c2ccncc2)[C@@H](C)CN([C@@H](C)CO)C(=O)c2cc(NS(C)(=O)=O)ccc2O1
    -1.4	3	2	-3.1
CC1(C(=O)Nc2ccc(Cl)c(C(F)(F)F)c2)Cc2c(-c3ccc(C(N)=O)cc3)ccnc2O1 (configuration not stated)
    -9.1	-25	-33	1.1
O=C(C[C@H]1CC[C@H](NC(=O)C2CCOCC2)[C@H](CO)O1)Nc1nccs1
    -0.1	2	-2	-1.4
CNC(=O)C[C@H]1CC[C@H]2[C@@H](COC[C@@H](O)CN2C(=O)c2ccccn2)O1
    -1.6	-1	9	1.1
C/C=C1\NC(=O)[C@H](C)NC(=O)[C@@H](NC(=O)[C@@H](Cc2ccc(O)cc2)NC(=O)[C@@H](NC(=O)/C(C)=C/C)C(C)C)[C@@H](C)OC(=O)[C@H](CCCCc2ccc(O)cc2)NC(=O)[C@@H](CCC(=O)OC)NC1=O
    3.3	0	16	2.4
O=C(NC1CCCC1)[C@H]1[C@H](CO)[C@H]2Cn3c(cccc3=O)[C@@H]1N2Cc1cc(F)ccc1F
    -4.2	2	10	-0.9
CN(C)CC(=O)N1CCCCN2[C@H](CO)[C@H](c3ccc(/C=C/c4ccccc4)cc3)[C@H]2C1
    3.5	-1	-4	3.7
CN1CCCCN2[C@H](CO)[C@@H](c3ccc(-c4cccnc4)cc3)[C@H]2C1
    4.3	4	16	-0.6
CC(C)(C)OC(=O)N1CCC[C@@H]1C(=O)N1CCC[C@@H]1C(=O)NCc1ccccc1
    -5.9	16	14	2.8
COc1ccc(NC(=O)N2CCCCN3[C@H](CO)[C@@H](c4ccc(C5=CCCCC5)cc4)[C@H]3C2)cc1
    16	-59	-74	-11
C[C@@H]1CN([C@H](C)CO)C(=O)c2cc(NC(=O)Cc3cn(C)c4ccccc34)ccc2O[C@H]1CN(C)C(=O)Nc1ccc(F)cc1
    3.6	-3	-7	4.2
COCC(=O)N[C@H]1C=C[C@H](CC(=O)NCc2ccccc2OC)O[C@@H]1CO
    0.3	1	5	0.0
Cn1cnc(S(=O)(=O)N[C@@H]2CC[C@H](CC(=O)N3CCN(c4ccccc4)CC3)O[C@@H]2CO)c1
    -0.5	1	-1	-1.2
CC(C)NC(=O)N(C)C[C@@H]1Oc2ccc(NC(=O)Cc3ccccc3)cc2CC(=O)N([C@H](C)CO)C[C@H]1C
    -1.9	2	3	1.5
CC1(C(=O)Nc2cccc3ccccc23)CCN1C(=O)Cc1ccc(Cl)cc1Cl (configuration not stated)
    0.8	-8	3	1.1
Cc1noc(C)c1S(=O)(=O)N(C)C[C@@H]1Oc2ccc(NC(=O)CCC(F)(F)F)cc2CC(=O)N([C@H](C)CO)C[C@@H]1C
    -0.2	6	5	-1.4
C[C@@H]1CN([C@@H](C)CO)S(=O)(=O)c2ccc(-c3ccc(C(=O)N(C)C)cc3)cc2O[C@H]1CN(C)C(=O)C1CCC1
    -2.3	-2	-12	-4.9
C/C=C/c1ccc([C@H]2[C@@H](CO)N(CC3CCCC3)[C@@H]2CNC(=O)NC(C)C)cc1
    9.4	3	-4	1.5
CS(=O)(=O)Nc1ccc2c(c1)[C@H]1C[C@H](CC(=O)NCc3ccccn3)O[C@@H](CO)[C@H]1O2
    -3.0	3	1	-1.6
COc1ccc2c3c(n(C)c2c1)[C@H](CO)NCC31CN(C(=O)CC2CC2)C1
    -4.0	5	-2	1.1
Cc1ccc(-c2ccc([C@H]3[C@@H](CO)N4CCCCN(C(=O)c5ccncc5)C[C@H]34)cc2)cc1
    -4.8	-2	-10	0.1
COc1ccc2c3c([nH]c2c1)[C@@H](CO)N(C(=O)Nc1ccc(F)cc1)CC31CCN(CC2CC2)CC1
    3.4	-1	-9	0.5
CO[C@H]1CN(C)C(=O)c2cc(NC(=O)C3CC3)ccc2OC[C@H](C)N(Cc2nccs2)C[C@H]1C
    -0.3	-4	-5	-0.2
C[C@H](CO)N1C[C@H](C)[C@@H](CN(C)C(=O)Nc2ccc(F)cc2)OCc2cn(nn2)CCCC1=O
    -1.3&0.8&-1.4	1&22	1&20	-1.3&1.2
CC(=O)N(C)C[C@@H]1Oc2ncc(C#CCC3CCCC3)cc2C(=O)N([C@H](C)CO)C[C@H]1C
    -0.3	-2	-4	-8.8
Cc1noc(C)c1NC(=O)Nc1ccc2c(c1)C(=O)N(C)[C@H]1CC[C@H](CC(=O)N(C)C)O[C@H]1CO2
    0.0	7	9	0.6
CC(C)C#Cc1ccc([C@H]2[C@H]3CN(S(=O)(=O)c4ccccc4)CC(=O)N3[C@H]2CO)cc1
    1.0	-5	-32	-0.5
Cc1noc(C)c1S(=O)(=O)Nc1ccc2c(c1)C(=O)N([C@@H](C)CO)C[C@H](C)[C@H](CN(C)S(=O)(=O)c1cccs1)O2
    -2.4	-1	3	0.4

Some of these compounds in order of their number in Ecoli rRNA inh OD600, low to high.
The line under a structure holds: AF4-AF9 inh	Ecoli rRNA inh	Ecoli rRNA inh OD600	Ecoli rRNA inh RFP
C[C@@H]1CN([C@@H](C)CO)S(=O)(=O)c2ccc(-c3ccc(C(=O)N(C)C)cc3)cc2O[C@H]1CN(C)C(=O)C1CCC1
    -2.3	-2	-12	-4.9
COc1ccc2c3c(n(C)c2c1)[C@H](CO)NCC31CN(C(=O)CC2CC2)C1
    -4.0	5	-2	1.1
CC(C)NC(=O)N(C)C[C@@H]1Oc2ccc(NC(=O)Cc3ccccc3)cc2CC(=O)N([C@H](C)CO)C[C@H]1C
    -1.9	2	3	1.5

(more compounds)
mol	AF4-AF9 inh	Ecoli rRNA inh	Ecoli rRNA inh OD600	Ecoli rRNA inh RFP
Cc1noc(C)c1S(=O)(=O)N(C)C[C@H]1Oc2ccc(NC(=O)CCN3CCOCC3)cc2CC(=O)N([C@@H](C)CO)C[C@H]1C	-0.5	0	16	-2.2
Cc1noc(C)c1NC(=O)Nc1ccc2c(c1)CC(=O)N([C@H](C)CO)C[C@H](C)[C@H](CN(C)S(=O)(=O)c1ccccc1)O2	-16	-1	4	-1.4
O=C(Nc1ccc2c(c1)OCO2)N[C@@H]1CC[C@@H](CC(=O)N2CCN(c3ccccc3)CC2)O[C@H]1CO	-1.8	-4	4	-0.8
CO[C@@H]1CN(C)C(=O)c2ccc(NC(=O)Nc3cccc(F)c3)cc2OC[C@H](C)N(C)C[C@@H]1C	-4.5	-1	3	-2.8
CCc1nc2ccc(C(=O)NCCCN3CCCC3=O)cn2c1N(C)C(=O)Nc1ccccc1OC	3.0	2	3	2.5
O=C(Nc1ccccc1Cl)c1cc(C2CCCN(C(=O)C3CCCCC3)C2)on1 (configuration not stated)	-3.4	3	-15	4.2
C[C@@H]1CN([C@@H](C)CO)C(=O)c2cccc(NS(=O)(=O)c3cccs3)c2O[C@@H]1CN(C)Cc1ccncc1	0.6	1	2	-0.2
C[C@H](CO)N1C[C@H](C)[C@H](CN(C)C(=O)Nc2cccc3ccccc23)Oc2c(NC(=O)c3cnccn3)cccc2C1=O	-4.9	-3	3	0.2
C[C@H]1CN([C@@H](C)CO)C(=O)c2cccc(NS(=O)(=O)c3ccc(Cl)cc3)c2O[C@H]1CN(C)C(=O)NC1CCCCC1	-1.3	-1	-4	2.6
